# Screens (PubChem)
# H5N1 CPE: MDCK cell protection from H5N1 avian flu; cytopathic effect, luminescence, 72 h; stronger effect = higher value; no value below 0 was filed and about half of the inactive calls have no number; reference of the scale not given here; inhibition, % at 50 µM; 96,000 tested, 0.07% active; in the data active = inhibition above about 25%
# * marks the source's active call; other numbers are inactive results; i = inactive. Only part of the results is shown (hit frequency here may not be typical).
molecule | H5N1 CPE
c1ccc2c(-c3nn4nnnc4c4ccccc34)cccc2c1 | 0.5
N#Cc1ccccc1Sc1ccccc1C(=O)OCC(=O)N1CCN(C(=O)c2ccco2)CC1 | 0.5
CC(=O)c1cc(-c2ccccc2)n(CC(=O)N2CCN(C3CCCC3)CC2)c1C | 0.5
CC(C)=CCC(C)(C)CNC(=O)NC1CCCCC1 | 0.2
CC(C)C(=O)N1CCC(c2nc(-c3ccc(S(=O)(=O)N4CCCC4)cc3)no2)CC1 | 2.2
CCOc1ccc(C(C)=O)cc1COc1ccc(-n2cnnn2)cc1 | i
O=C(O)CCC(=O)N1CCc2cc(S(=O)(=O)NCc3cccs3)ccc21 | 0.4
COc1ccc(N(CC(=O)NCc2cccs2)S(=O)(=O)c2c(C)nn(C)c2C)cc1 | 0.8
CC(=O)Nc1cccc(NC(=O)CSc2nnc(Cc3cccn3C)n2-c2ccc(F)cc2)c1 | i
CC(C)C(=O)Nc1c(C(=O)c2ccc(F)cc2)oc2ccccc12 | i
Cc1ccc(C2CC(c3ccc(F)cc3)Nc3nc(N)nn32)cc1 (stereo not drawn) | i
Cc1onc(-c2ccccc2)c1C(=O)Nc1ccc(-c2nnc3n2CCCCC3)cc1 | i
O=C(NC(c1ccccc1)c1ccccc1)c1ccc(Br)o1 | i
C=CCn1c(SCCC(=O)O)nc2c1c(=O)n(C)c(=O)n2C | 1.6
CCOC(=O)c1c(-c2cccs2)csc1NC(=O)CN1CCOCC1 | i
CN1C(=O)N2CN(C3CCCCC3)CN3C(=O)N(C)C1C23 (stereo not drawn) | 0.2
Cn1c(Cn2c(=O)sc3ccccc32)nnc1SCC(=O)N1CCOCC1 | 0.8
CCc1cc(-c2n[nH]c(=S)n2-c2ccccc2C)cs1 | i
O=C(Nc1cccnc1)c1ccc2snnc2c1 | i
CCOC(=O)CC1ON(C)C(=O)N1c1ccc(Cl)cc1Cl (stereo not drawn) | i

# Compounds from the list above that have a carbonyl joined to an NH by a bond outside any ring, in the order listed:
molecule | H5N1 CPE
CC(C)=CCC(C)(C)CNC(=O)NC1CCCCC1 | 0.2
COc1ccc(N(CC(=O)NCc2cccs2)S(=O)(=O)c2c(C)nn(C)c2C)cc1 | 0.8
CC(=O)Nc1cccc(NC(=O)CSc2nnc(Cc3cccn3C)n2-c2ccc(F)cc2)c1 | i
CC(C)C(=O)Nc1c(C(=O)c2ccc(F)cc2)oc2ccccc12 | i
Cc1onc(-c2ccccc2)c1C(=O)Nc1ccc(-c2nnc3n2CCCCC3)cc1 | i
O=C(NC(c1ccccc1)c1ccccc1)c1ccc(Br)o1 | i
CCOC(=O)c1c(-c2cccs2)csc1NC(=O)CN1CCOCC1 | i
O=C(Nc1cccnc1)c1ccc2snnc2c1 | i

# Later entries:
molecule | H5N1 CPE
Cc1cc(S(=O)(=O)Nc2cccc(O)c2)c(C)s1 | 1.1
CCSc1nnc(NC(=O)c2c(-c3ccccc3Cl)noc2C)s1 | i
Cc1nnc(SCC(=O)Nc2ccc3c(c2)OCCO3)n1N | i
CC(=O)c1cc2c(cc1NC(=O)CN1CCCCCCC1)OCO2 | i
Cc1nnc(SCCOC(N)=O)n1C | 0.5
O=C(NCCc1ccccc1)c1ccc(NC2=NC3CS(=O)(=O)CC3S2)cc1 (stereo not drawn) | 0.2
CC1CCC(NC(=O)c2ccc(N3CCCC3=O)cc2)CC1 (stereo not drawn) | i
CCC(=O)N1CCNC(=O)C1CC(=O)Nc1ccc(C)c(Cl)c1 (stereo not drawn) | i
COc1cc(OC)cc(-c2nnc(SCC(=O)N3CCOCC3)o2)c1 | i
Cc1cc(C)c(C#N)c(SCC(=O)NC2CC2)n1 | 2.2
N#C/C(=C(/O)CN1CCCCC1)c1nc(-c2ccc(Cl)cc2)cs1 | 0.5
O=C(NCCCN1CCOCC1)c1ccc(Br)cc1 | i
COC(=O)c1sc2nc(-c3ccccc3)nc(N3CCN(C)CC3)c2c1C | i
Cc1ccc(S(=O)(=O)NCCC(=O)NCc2ccccc2)cc1 | i
CCOc1ccc2nc(NC(=O)CN3CCN(C)CC3)sc2c1 | 2.6
Cc1nc2cc(-c3cccc(F)c3)nn2c(C)c1CCC(=O)N1CCC2(CC1)OCCO2 | i
CCn1c(SCC(=O)c2[nH]c(C)c(C(C)=O)c2C)nnc1-c1cccs1 | i
CCOC(=O)N1CCN(C(=O)CSc2nnc(-c3ccccc3OC)o2)CC1 | 0.7
CC(=O)NCCn1c(SCc2ccccc2C)nc2ccccc2c1=O | 0.3
Cc1ccccc1-n1c(SCC(=O)N2CCOCC2)nc(O)cc1=O | 0.3

# Brought forward from above: two entries, followed by the next part.
molecule | H5N1 CPE
CC(=O)NCCn1c(SCc2ccccc2C)nc2ccccc2c1=O | 0.3
Cc1ccccc1-n1c(SCC(=O)N2CCOCC2)nc(O)cc1=O | 0.3
Cc1cc(C)nc(-n2nc(C)c(Sc3ccc(F)cc3)c2N)n1 | 1.1
Cc1cc(C(F)(F)F)nc(NCc2ccc(F)cc2)n1 | 0.3
O=c1onc(-c2cccs2)n1Cc1ccccc1 | 1.7
COc1ccc(CC(=S)N2CCOCC2)cc1 | i
CCc1ccc(N2CC(C(=O)OCC(=O)NC3CCS(=O)(=O)C3)CC2=O)cc1 (stereo not drawn) | i
CCOC(=O)c1cccc(NC(=O)CSc2nnc(C3CCCCC3)n2C)c1 | 1.6
CCNc1nc2c(c(=O)[nH]c(=O)n2C)n1Cc1ccc(F)cc1 | 0.4
Cc1cccc(NC(=S)NC2CC3CCCC(C2)N3Cc2cccs2)c1 (stereo not drawn) | 6.2
Cc1nc(NCCNC(=O)c2ccco2)c2c(C)c(C)sc2n1 | 0.4
CC(=O)c1ccc(OCC(O)CN2CCC(C)CC2)cc1 (stereo not drawn) | 1.5
NC1=C(c2ccc(F)cc2)C(=O)CS1 | i
COc1ccc(S(=O)(=O)N2CCCN(CC(=O)Nc3ccc4c(c3)OCO4)CC2)cc1 | 5.8
CCN(CC)S(=O)(=O)c1ccc(O)c(C(=O)OCC(=O)N(C)Cc2ccccc2)c1 | i
Cc1ccc(-c2ccc(=O)n(CCC(=O)NCCN3CCCCC3C)n2)cc1 (stereo not drawn) | 1.6
COc1ccccc1N1CCN(C(=O)CSc2ccccc2)CC1 | 0.3
O=C(CN1CCNCC1)Nc1ccc(Oc2ccccc2)cc1 | i
Oc1ccc2ccccc2c1/C=N/c1nccs1 | 0.4
CCOC(=O)N1CCC(NC(=O)CNS(=O)(=O)c2ccc(Br)s2)CC1 | i
CN(C(=O)Nc1ccc(Cl)cc1Cl)[C@H]1c2cc(Br)ccc2OC[C@H]1CO | i
COc1ccc(-c2nc3c(c(SCC(=O)N4CCOCC4)n2)COC(C)(C)C3)cc1 | i
CCOc1ccc(Nc2nc(CC(=O)OC)cc(=O)[nH]2)cc1 | i
COc1ccc(-c2nnc(SCC(N)=O)n2N)cc1 | i
Cc1ccc2c(c1)NC(=O)C(CC(=O)NCCCN1CCc3ccccc3C1)O2 (stereo not drawn) | i
Brc1ccc(Oc2nsnc2N2CCOCC2)cc1 | 2.0
O=C(CN1C(=O)c2ccccc2C1=O)Nc1ccccc1C(=O)NC1CCCCC1 | 0.8
O=C(NCCC1=CCCCC1)c1ccc(CN2CCOCC2)cc1 | 2.0
CS(=O)(=O)N(CC(=O)N1CCCC1)c1ccc(OCc2ccccc2)cc1 | 0.6
Cc1ccc(C)c(C(=O)CC2(O)C(=O)Nc3ccccc32)c1 (stereo not drawn) | i
Cc1ccc(S(=O)(=O)/N=C(/NC(=S)Nc2ccccc2)c2ccccc2)cc1 | i
O=C(Cc1ccc(Cl)cc1)Nc1ccccc1N1CCOCC1 | 1.2
Clc1ccccc1Cn1nnc2c(NCCN3CCOCC3)ncnc21 | i
Nc1nc2n(n1)C(c1ccco1)CC(c1ccc(Cl)c(Cl)c1)N2 (stereo not drawn) | i
Cc1ccc(-c2nnn(CC(=O)N3CCCc4ccccc43)n2)cc1 | 0.1
Cn1nc(-c2ccc(Cl)cc2)c2cc(C(=O)NCCCN3CCCC3)sc21 | i
CC(C)C12CN3CC(C(C)C)(CN(C1)C3c1ccco1)C2=O (stereo not drawn) | i
CC(C)COc1ccc(-c2nnc(-c3ccncc3)o2)cc1 | i
O=C(NC1CCCCC1)N1CCCc2ccccc21 | i
COc1cccc(CNC(=O)CCn2c(=O)oc3ccccc32)c1 | 0.3
O=C(NCCCCNC(=O)c1ccc(Br)s1)c1ccc(Br)s1 | 0.2
O=S(=O)(N1CCOCC1)N1CCN(c2ccc(F)cc2)CC1 | i
CCOC(=O)c1c(NC(=O)c2c(N)n(CCCOC)c3nc4ccccc4nc23)sc2c1CCCC2 | i
COc1ccc(/C=C2/CCOC2=O)cc1 | i
O=C(COc1ccccc1)Nc1nnc(-c2ccc(Cl)s2)o1 | 2.3
COc1ccc(-n2nnnc2SCC(=O)NCc2ccco2)cc1OC | 1.2
Cc1cc(NC(=O)CSc2nccn2-c2ccc(F)cc2)no1 | i
Cc1ccccc1CSCC(=O)NC(=O)NCc1ccco1 | i
CCOc1ccc2[nH]c(=O)c(CN(CCO)C(=O)c3ccc(OC)c(OC)c3)cc2c1 | 0.4
COc1ccc(N2CCN(C(=O)C3CCCO3)CC2)cc1 (stereo not drawn) | i
O=C(NC1CCCC1)C(c1ccsc1)N(Cc1ccco1)C(=O)Cc1cccs1 (stereo not drawn) | 0.9
Cc1ccc(S(=O)(=O)N2CCN(Cc3ccccc3C(F)(F)F)CC2)cc1 | 2.2
O=C(Nc1ccon1)c1cc2c(s1)CCCCCC2 | 0.2
CCn1c(SCC(=O)c2ccc(F)cc2)nnc1-c1ccoc1C | 2.9
Cc1ccc2c(c1)/C(=N/O)CCS2 | i
COc1ccc(N(CC(=O)Nc2cc(OC)ccc2OC)S(=O)(=O)c2c(C)nn(C)c2C)cc1 | 0.8
CCCCN(CCCC)Cc1ccc(N)cc1 | 0.3
Clc1ccc2nc(C3CCN(Cc4ccccc4)CC3)[nH]c2c1 | i
CC1(C)CC2(CCO1)OC(=O)CC2C(=O)NCCc1ccccc1 (stereo not drawn) | i
Cc1nc2ccc(N)cc2s1 | i
Cn1c(SCCN2CCCCC2)nnc1-c1ccccc1Br | i
CCCc1cc(=O)[nH]c(SCC(=O)NC)n1 | i

# The listing continues:
molecule | H5N1 CPE
O=C(c1ccccc1)c1ccc(C(=O)N2CCN(c3ccc(F)cc3)CC2)o1 | 1.1
O=C(Nc1ncc(C(F)(F)F)cc1Cl)C1COc2ccccc2O1 (stereo not drawn) | i
Nc1cc(N)cc(-c2nc3ccccc3[nH]2)c1 | i
CCCCCCCCNc1ncnc2ccccc12 | i
O=C(CN1CCC(n2nnc3cc(F)ccc32)CC1)NCCc1nc2ccccc2[nH]1 | 0.1
Cc1oc2c(c1C(=O)NCc1ccccc1)CCCC2 | i
CCOC(=O)C1CCCN(C(=O)Cn2cccc2C(=O)c2ccccc2)C1 (stereo not drawn) | 0.4
COc1cc(NS(=O)(=O)c2ccc3c(c2)oc(=O)n3C)cc(OC)c1OC | 0.5
COc1ccc(O)c(C(=O)c2cc(C#N)c(=O)n(CC3CCCO3)c2)c1 (stereo not drawn) | 1.8
O=C(CCCOc1ccc(Cl)cc1Cl)NCCCO | 0.7
Cc1cnn(CCC(=O)NNC(=S)Nc2ccccc2)c1 | i
COCCn1nnnc1C(c1cccc(C(F)(F)F)c1)N1CCN(Cc2ccccc2)CC1 (stereo not drawn) | 0.6
CCCCCCCSc1nc(N)cc(=O)[nH]1 | i
COC(=O)c1ccccc1NC(=O)c1cc(OC)cc(OC)c1 | i
O=S(=O)(N1CCCCCC1)N1CCN(S(=O)(=O)N2CCCCC2)CC1 | i
CC(=O)NCCn1c(SCc2cc(=O)n3cc(Cl)ccc3n2)nc2ccccc2c1=O | 5.3
CCCC(C)n1[nH]c(=O)c2c(C)cc(C)nc21 (stereo not drawn) | 0.3
O=C(Cn1ncc2c(=O)oc3ccccc3c21)N1CCN(C(=O)c2ccco2)CC1 | i
CSc1nnc(C)c(/C=C/Nc2ccc(C)cc2)n1 | 9.0
CS(=O)(=O)N1CCN(C(=O)c2cc3ccccc3oc2=O)CC1 | i
CCN(CC(=O)NC)S(=O)(=O)c1ccc(Br)cc1 | i
COc1cc(CC(=O)Nc2ccc(S(=O)(=O)N(C)C)cc2)cc(OC)c1OC | i
O=C(CSc1c[nH]c2ccccc12)N1CCCc2ccccc21 | 2.6
COc1ccc(-n2c(C)nc3cc(C(=O)N4CCOCC4)ccc32)cc1 | i
CN(C)C(=O)c1snnc1-c1ccccc1 | 0.3
COc1ccc(S(=O)(=O)N2Cc3ccccc3CC2C(=O)Nc2nccs2)cc1 (stereo not drawn) | 3.4
O=c1c2ccccc2sn1-c1cc(S(=O)(=O)N2CCOCC2)ccc1N1CCCC1 | i
Cc1cccc2cc(CN(CCCO)C(=O)Nc3ccccc3Cl)c(=O)[nH]c12 | i
O=C1NC(Nc2nccs2)(C(F)(F)F)C(=O)N1CCc1ccccc1 (stereo not drawn) | 0.2
Clc1ccc2noc(-c3ccccc3)c2c1 | 1.5
O=C(CSC1CC(=O)N(CCc2ccccc2)C1=O)Nc1ccc(Br)cc1 (stereo not drawn) | i
O=C(Nc1ccccc1)c1n[nH]c(Cn2cncn2)n1 | i
Cc1c(C(=O)NCc2ccco2)oc2ccc(S(=O)(=O)N3CCC4(CC3)OCCO4)cc12 | i
CCCCC(C(=O)NCCC(C)C)N(CCCN1CCOCC1)C(=O)c1snc(C(N)=O)c1N (stereo not drawn) | 0.1
Brc1cccc(-c2nnc3sc(CN4CCCCC4)cn23)c1 | 0.6
Cc1ccc(F)cc1NC(=O)C12CC3CC(C1)CC(n1cnc([N+](=O)[O-])n1)(C3)C2 | 4.7
CN(CP(=O)(O)CCc1ccccc1)S(C)(=O)=O | i
NC(=O)c1ccccc1OCC(=O)NS(=O)(=O)c1ccccc1 | i
CCOC(=O)C1C(=O)NC23CCCC2C1c1ccccc1O3 (stereo not drawn) | i
COc1ccc(-c2cn(/N=C/c3ccc(Cl)cc3Cl)c(N)n2)cc1 | i
